D2 potentiator = positive allosteric modulators of human D2 dopamine receptor; P14416; DiscoveRx D2 beta-arrestin cells, luminescence, 90 min; 100% = 57 uM dopamine signal; potentiation, % (test concentration not listed); 0.23% of 360,000 active; AID 624464; active = potentiation of 50% or more; inconclusive = 30% to 50%; inactive = 30% or less;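 also: compound concentration not given in the record; tested on top of an EC20 dose of dopamine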
Target sequence (P14416 whole entry, looked up): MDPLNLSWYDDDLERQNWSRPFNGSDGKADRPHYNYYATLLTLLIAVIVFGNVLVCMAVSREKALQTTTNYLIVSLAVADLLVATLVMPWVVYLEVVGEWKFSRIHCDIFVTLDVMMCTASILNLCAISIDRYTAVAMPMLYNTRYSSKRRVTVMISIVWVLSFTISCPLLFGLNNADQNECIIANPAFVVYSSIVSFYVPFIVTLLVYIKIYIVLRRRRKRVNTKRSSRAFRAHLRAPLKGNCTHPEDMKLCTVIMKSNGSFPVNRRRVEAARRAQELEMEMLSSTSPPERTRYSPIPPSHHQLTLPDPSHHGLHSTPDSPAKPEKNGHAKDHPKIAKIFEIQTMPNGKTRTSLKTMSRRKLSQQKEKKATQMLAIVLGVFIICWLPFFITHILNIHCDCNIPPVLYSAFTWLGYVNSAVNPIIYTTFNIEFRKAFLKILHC
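PathHunter beta-arrestin assay in DiscoveRx D2 cells. Compounds were added with an EC20 of dopamine (50 nM final) for 90 min at 37 deg C. Luminescence was read 1 h after detection reagent, with 57 uM dopamine as the EC100 control.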
PINK1 modulator = modulators of PINK1 expression | PINK1 immunofluorescence, high-content cytometry, 24 h | Potency, µM (titrated, usually from 76.6 µM), without a hit: at the top dose activation (PINK1 increase), usual class: activators | 0.2% of 410,000 active; active = well fitted activation curve with a large enough effect; inconclusive = small, poorly fitted or top-dose-only effect; inactive = flat fitted curve, though single readings scatter; cell line not stated here;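 also: potency is read from the fitted curve at half-maximal effect; % of control where 0% means no effect; nearly all actives have a fitted effect of over 65% in size; a mitochondrial uncoupler was the plate control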
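A stable cell line was treated with compounds at 5 concentrations for 24 hours, with CCCP as control. PINK1 levels and mitochondrial localization were measured by immunofluorescence with mitochondrial, cell and nuclear markers after fixation, read by laser-scanning cytometry.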
Six1-Eya2 inh = Six1/Eya2 interaction inhibition | 0.56% of 360,000 active | Q15475+O00167 | AlphaScreen GST-Six1/His-Eya2 binding, biochemical; stronger effect = lower value; control for the full effect not named in the record | activity change, % (concentration not given with the values); in the data active = activity change below about -65%; inconclusive = about -30% to -65%; inactive = above about -30%; also: % is scaled to controls: 0 for no effect and ±100 for the full control effect
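GST-Six1 + His-Eya2 (5X stock: 250/500 nM); Tris pH 8.0, 300 mM NaCl, 0.05% BSA, 0.02% Tween 20; GSH donor/Ni acceptor beads; 1 h 37 °C dark; AlphaScreen readout.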
CtBP-E1A inh = inhibitors of CtBP/E1A interaction; AID 651724; AlphaScreen GST-E1A/His-CtBP binding, 1536-well; stronger effect = lower value; control for the full effect not named in the record; 0.49% of 340,000 active; activity change, % (no concentration beside the values); in the data active means activity change below about -65%; inconclusive means about -30% to -65%; inactive means above about -30%; also: % is scaled to controls: 0 for no effect and ±100 for the full control effect; compound concentration not given in the record
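Steps: dispense buffer (Tris pH 8.0, NaCl 300 mM, TCEP 1 mM, BSA, Tween 20); add 5X protein mix (GST-E1A, His-CtBP, 125 nM each); pin 23 nL compound; 2 h at 37 °C, dark; add 5X beads (50 ug/mL); 1 h; read.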
D2 agonist = activates the human D2 dopamine receptor. P14416. DiscoveRx PathHunter D2 beta-arrestin, luminescence, 90 min; 100% = 57 uM dopamine signal. AID 624465. activation, % (test concentration not listed). 0.084% of 360,000 active; in the data active = activation above about 40%; inconclusive = about 15% to 40%; inactive = below about 15%; also: compound concentration not given in the record; the text of the record calls up to 30% inactive
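DiscoveRx PathHunter D2 beta-arrestin cells (2,100/well) attached overnight, then compound-stimulated 90 min at 37 C in HBSS/10 mM HEPES/0.1% Tween-20 buffer; beta-galactosidase complementation read by luminescence after 1 h at ambient temperature. Dopamine 57 uM final (EC100) as control.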
TRPML1 ag = agonists of human TRPML1 channel. Q9GZU1. TRPML1-expressing cells, Ca2+ dye fluorescence, FDSS; host cell line not named in the record; reference of the full effect not given here. activation, % (no concentration beside the values). 0.12% of 410,000 active; in the data active = activation above about 50%; inconclusive = about 30% to 50%; inactive = below about 30%; also: 0% is about no effect; the text of the record puts the active cut at 80%
Target sequence (Q9GZU1 whole entry, looked up): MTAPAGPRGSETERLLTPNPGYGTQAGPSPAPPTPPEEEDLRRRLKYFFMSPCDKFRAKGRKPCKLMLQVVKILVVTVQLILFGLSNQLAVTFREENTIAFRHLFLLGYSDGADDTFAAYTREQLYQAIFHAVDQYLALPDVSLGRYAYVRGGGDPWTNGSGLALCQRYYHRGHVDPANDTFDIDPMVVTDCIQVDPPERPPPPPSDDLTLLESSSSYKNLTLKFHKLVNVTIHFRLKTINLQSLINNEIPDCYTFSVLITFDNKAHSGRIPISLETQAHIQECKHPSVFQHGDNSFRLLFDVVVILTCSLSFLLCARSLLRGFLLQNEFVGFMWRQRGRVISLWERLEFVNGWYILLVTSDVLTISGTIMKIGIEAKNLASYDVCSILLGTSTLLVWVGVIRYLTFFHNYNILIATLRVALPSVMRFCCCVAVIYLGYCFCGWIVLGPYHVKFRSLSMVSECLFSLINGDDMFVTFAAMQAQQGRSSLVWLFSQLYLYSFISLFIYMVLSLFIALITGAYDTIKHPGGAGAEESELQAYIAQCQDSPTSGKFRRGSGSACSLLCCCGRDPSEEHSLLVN
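Tetracycline-induced TRPML1-DL cells are seeded and incubated overnight before loading with a no-wash Ca2+ dye and quencher. Agonist activity is taken from the 110 s fluorescence read following compound pin-transfer on an FDSS, before EC80 54-4 challenge.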
Active calls of the source: *; ? = inconclusive; · = no result given; & = joins results of further samples; [ ] = dose if it differs, or a comment. Compounds were not picked by outcome, and some 1.3% of all compounds hit somewhere here.

SMILES	D2 potentiator	PINK1 modulator	Six1-Eya2 inh	CtBP-E1A inh	D2 agonist	TRPML1 ag
COc1cc(OC)cc(N(C(=O)C2COc3ccccc3O2)C(C(=O)NC2CCCCC2)c2ccc(O)cc2)c1 (configuration not stated)	-19.9	0.0%	3.2	6.0	-0.6	2.1
COCCOCCn1cnc2ccccc21	-6.6	0.5%	4.8	6.9	-0.6	0.1
COc1ccc(Cl)cc1NC(=O)Cn1c(C)csc1=O	-20.2	-0.8%	-2.9	20.6	1.0	-0.4
Cc1occc1C(=O)Nc1cccc([N+](=O)[O-])c1	-23.4	-0.4%	-6.5	-2.3	-4.8	-0.3
CN(C)CCCNC(=O)CC1C[C@H](C(=O)N2CCCCC2)[C@@]2(CCc3ccccc3)c3[nH]c4ccccc4c3CCN2C1=O (some centres not stated)	·	-1.1%	0.7	0.2	-0.5	-0.7
CCOC(=O)C1=C(COC(=O)CNS(=O)(=O)c2ccc(C)cc2)NC(=O)NC1C (configuration not stated)	-9.9	0.3%	1.8	0.3	-5.3	-0.4
Cc1ccc(NS(=O)(=O)c2cccc3cccnc23)c(Cl)c1	-7.9	3.8%	-14.4	·	0.7	2.8
CCOC(=O)C1CCCN(C(=O)Cn2nc(C)n3c(cc4c(OC)cccc43)c2=O)C1 (configuration not stated)	8.0	3.6%&0.1%	-0.9	0.0	?	0.4&0.3
O=C(N/N=C/c1cccnc1)c1ccc(NC(=O)c2ccccc2Cl)cc1	1.6	3.0%	-14.4	-12.7	-2.3	-1.0
CCOC(=O)C1=C(c2ccccc2)Nc2ncnn2C1c1cc(OC)cc(OC)c1OC (configuration not stated)	-7.2	-3.6%	-3.2	-1.3	0.8	0.7
O=C(c1cc(COc2ccc(F)cc2Cl)on1)N1CC[C@@H]2CCCC[C@H]2C1	-17.8	?	5.1	13.8	-4.2	1.3
CCC(CC)C(=O)Nc1cccc(C(=O)NC(C)(C)C)c1	-20.8	1.6%	5.4	0.0	0.2	0.3
CCOC(=O)c1ccccc1NC(=O)c1cccc([N+](=O)[O-])c1	0.1	2.6%	6.9	12.6	-0.9	2.1
CCCOC(=O)C1C2C=CC3(CN(c4cccc(Cl)c4)C(=O)C13)O2 (configuration not stated)	0.7	2.5%	-7.2	1.4	2.9	0.2
O=C(CSc1nnc(CNC(=O)c2ccccc2)o1)NCc1ccco1	0.3	1.1%	-3.9	-1.0	-3.3	0.2
CCc1ccc(Nc2ncc3c(n2)CC(C)CC3=O)cc1 (configuration not stated)	-0.6	2.5%	-0.9	4.2	0.4	0.3
COc1ccc(NC(=O)c2nc[nH]c2C(=O)N[C@@H](C)c2ccccc2)cc1	-9.4	2.9%	-8.0	-4.6	-2.4	1.9
CCOc1cc(C)c(S(=O)(=O)Nc2ccc(Cl)cn2)cc1C	-4.6	1.2%[38.3 µM]	-1.1	2.5	-1.0	2.0
Brc1cc2ccccc2[n+](Cc2ccccc2)c1	-9.7	6.2%	-2.1	1.5	1.7	0.2
Cc1cccc(SC2CCN(C(=O)C3CCC(=O)N(C4CC4)C3)CC2)c1 (configuration not stated)	-16.4	-0.8%	3.5	-1.4	9.1	-0.4

Quoted from the listing.
`CCC(CC)C(=O)Nc1cccc(C(=O)NC(C)(C)C)c1` – CtBP-E1A inh: 0.0
`COc1ccc(NC(=O)c2nc[nH]c2C(=O)N[C@@H](C)c2ccccc2)cc1` – Six1-Eya2 inh: -8.0

More structures.
SMILES	D2 potentiator	PINK1 modulator	Six1-Eya2 inh	CtBP-E1A inh	D2 agonist	TRPML1 ag
C[C@]12c3[nH]c4ccc(Cl)cc4c3CCN1C(=O)[C@@H](CC(=O)NCCCn1ccnc1)C[C@@H]2C(=O)N1CCCCC1	-10.3	0.1%	-9.7	-8.4	-1.6	-0.9
CC1C(=O)N(Cc2cn(CCC3OCCCO3)nn2)CCS(=O)(=O)N1Cc1ccc(-c2ccc(Cl)nc2)cc1 (configuration not stated)	3.3	-0.2%	2.5	3.1	-5.4	0.1
COc1ccc(CC(=O)Nc2sc3c(c2C(N)=O)CCCC3)cc1	1.4	9.3%	1.8	0.2	4.1	0.5
COc1ccccc1NC(=O)C(=O)NNC(=O)c1ccco1	8.2	10.1%	-0.3	4.4	-2.3	-0.2
Cc1ccc(NC(=O)NC(=O)CN2C(=O)NC3(CCCCCCC3)C2=O)c(C)c1	-20.2	·	-3.4	8.9	0.1	-0.7
Cc1ccc2nc(C3CCCN(C(=S)Nc4ccccc4C)C3)[nH]c2c1 (configuration not stated)	-10.8	·	-4.0	5.5	-1.0	0.3
Cc1nn(Cc2ccc(C(=O)Nc3ccccc3C(F)(F)F)o2)c(C)c1Br	8.1	·	2.0	0.0	3.7	2.4
OCC[C@@H]1C[C@@H](O)[C@H](O)[C@@]2(CCCO2)O1	-0.9	1.9%	27.2	0.0	-0.3	-0.2
CC(=O)C1=C(O)C(=O)N(CCN2CCOCC2)C1c1ccc(N(C)C)cc1 (configuration not stated)	10.2	1.9%	-0.7	-0.9	-2.3	-1.2
Cc1ccc(NC(=O)CN(C)C(=O)COc2ccc(Br)cc2)cc1	-23.4	6.2%	2.6	-0.2	-2.3	-1.0
O=C(O)c1cc(-c2ccc(-c3c(-c4ccc5c(c4)OCO5)noc3-c3ccsc3)cc2)nc2ccccc12	-5.1	-1.1%	-2.1	3.4	-0.9	-0.7&-0.4
O=C1Nc2ccccc2C(O)(C(=O)NCc2ccc3c(c2)OCO3)N1c1ccccc1 (configuration not stated)	4.0	-0.2%	4.7	4.5	-2.9	0.4
Cc1cc(OCC(=O)NCC(c2ccc(F)cc2)N2CCOCC2)ccc1Cl (configuration not stated)	-6.8	2.8%	1.8	·	-1.1	0.8
CCc1ccccc1NC(=O)CN1CCN(C(=O)CNC(=O)c2ccccc2F)CC1	-1.3	1.4%	0.0	9.6	1.8	3.8
O=C(CSc1nc2ccccc2c(=O)n1-c1ccccc1)c1c[nH]c2ccccc12	-7.1	12.8%	-1.0	4.2	-3.3	-0.2
CC1CCN(CCOCCOc2ccc(Cl)cc2Br)CC1	-30.5	-1.1%[38.3 µM]	-2.3	-3.4	-2.0	-0.5
CCN(CC)C(=O)C1=C(C)N(Cc2ccc(C(C)(C)C)cc2)C(=O)C(CC(=O)NC2CCCC2)C1 (configuration not stated)	-4.2	0.6%	3.6	-3.0	-8.8	-0.6
COc1ccccc1-c1c(C)oc2cc(OCC(=O)OCc3ccccc3)ccc2c1=O	13.4	2.7%	-5.2	0.7	0.4	2.6
CC(C)NC(=O)CSCc1ccccc1Cl	-1.5	1.8%	17.4	10.0	-1.6	-0.3
CC1CCCCN1C(=O)c1cc(-c2ccc3c(c2)OCO3)on1 (configuration not stated)	-1.9	0.1%	5.2	3.1	-4.1	0.1
O=S(=O)(c1ccc(F)cc1)c1nc(-c2ccccc2F)oc1N1CCCCC1	-17.8	-6.3%[38.3 µM]	-19.0	-17.6	-3.1	-0.4
Cc1ccc(N2C(=O)C3C4C=CC(C4)C3C2=O)cc1C (configuration not stated)	-0.4	13.4%[38.3 µM]	5.9	-1.7	-0.5	0.3
O=c1c(C(c2c(O)nc3n(c2=O)CCS3)c2cccc3ccccc23)c(O)nc2n1CCS2	21.3	-0.7%	-10.3	-7.6	-0.8	1.7
O=C(CCNC(=O)c1ccc(Br)cc1)Nc1ccccc1N1CCOCC1	4.0	-0.1%	0.0	2.8	0.8	0.6
O=C(COC(=O)CCC(=O)c1cccs1)Nc1ccc(F)c(F)c1F	2.3	2.4%	-5.9	·	-1.8	-1.3
CCOC(=O)c1sc2nc(-c3ccco3)c3c(c2c1N)CC(C)(C)OC3	-23.0	8.8%	-22.4	16.6	-0.8	-0.2
CCN(CC)S(=O)(=O)c1cccc(-c2nnc(SCCOc3ccccc3C)o2)c1	-6.1	-0.1%	17.3	4.7	-2.5	5.9
O=C(CS)Nc1ccc2ccccc2c1	-4.6	7.5%&2.8%	-13.0&13.8	2.4	-1.4	-0.4&0.5
Clc1ccccc1CSc1nnc(-c2cccnc2)n1Cc1ccco1	-3.1	-0.1%	-1.8	-8.3	0.9	1.0
CCc1c(C)nc2ncnn2c1N1CCCC(C(=O)NCc2ccc3c(c2)OCO3)C1 (configuration not stated)	0.8	-1.3%[38.3 µM]	-2.1	-3.7	-0.8	-0.4
Cn1c(=O)[nH]c(=O)c2c1nc1n2CCCN1CCc1ccccc1	-2.2	0.5%	-10.4	-13.6	-1.5	2.0
Cc1ccc2[nH]c(O)c(N=Nc3ccccc3[N+](=O)[O-])c2c1	-10.1	0.4%	0.1	-2.2	-1.3	-0.4
Cc1ccc(OCc2ccc(C(=O)Nc3nc4ccccc4n3Cc3ccccc3)o2)c([N+](=O)[O-])c1	-3.6	3.2%	-0.6	-1.3	-4.8	-0.8
O=C(CCCc1ccccc1)Nc1ccc(Br)cc1F	-2.2	1.9%	8.5	-5.2	3.7	1.6
COc1ccc(C(NCC(=O)NC(C)c2ccc(Cl)cc2)c2ccccc2)cc1 (configuration not stated)	-12.4	?	4.7	5.6	1.6	2.5
COc1ccc(S(=O)(=O)N2CCCCCC2)cc1C(=O)NCc1cccs1	-6.6	5.8%	17.3	0.0	-5.3	1.8
COc1ccc(C(C#N)Nc2ccccc2C)cc1 (configuration not stated)	-9.3	·	2.9	-2.8	0.0	0.0
S=C(NCc1ccc2c(c1)OCO2)Nc1ccc2nsnc2c1	-11.1	22.4%	-2.4	8.9	8.9	1.0
CCCCCCCNC(=O)CC(NS(=O)(=O)c1ccc(NC(C)=O)cc1)C(C)C (configuration not stated)	1.9	-0.2%	7.1	-5.5	1.1	-0.3
CCCC(=O)OCC(=O)Nc1ccc2[nH]c(=O)[nH]c2c1	1.6	0.8%	-17.0	·	-4.3	0.4
CC(C)CC(NC(=O)OC(C)(C)C)c1cn([C@@H](CCC(=O)OC(C)(C)C)C(=O)N2CCN(C(=O)OC(C)(C)C)CC2)nn1 (some centres not stated)	-3.2	0.5%	-1.0	2.8	-1.3	-0.7
CCOC(=O)N1CCc2c(sc(NC(=O)C3COc4ccccc4O3)c2C(N)=O)C1 (configuration not stated)	11.1	8.0%	-5.6	-4.2	-6.0	-0.1
O=C(O)/C=C/C(=O)Nc1ccc(Cl)c(C(=O)O)c1	-5.7	0.7%	-11.5	-2.0	-11.3	-0.5
CCc1cc(=O)oc2cc(OCC(=O)N3CCCc4ccccc43)ccc12	3.6	-4.2%[38.3 µM]	-0.3	1.1	-0.2	1.6
CC(NC(=O)c1cccc(Br)c1)c1ccccc1 (configuration not stated)	-2.7	-1.9%	3.8	-0.9	0.8	0.5
COc1ccc(CCN(C)c2ccc(C(N)=O)cc2[N+](=O)[O-])cc1OC	0.7	2.8%	-3.6	-4.5	-1.5	0.2
O=C(Nc1ccccc1Cl)c1ccn[nH]1	-10.6	-0.2%	21.9	0.0	-3.9	0.7

Source: PubChem (National Center for Advancing Translational Sciences (NCATS))
